MLL AF4-AF9 inh: blocks AF4 peptide binding to human AF9; P42568; AlphaScreen, biotin-AF4 peptide binding to FLAG-AF9; inhibition, % at 10 µM; 0.47% of 350,000 active;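 active = every replicate reaching a set inhibition limit, whatever the replicate mean, cut at about 25% in these data; inconclusive = mean inhibition reaches that limit but some replicates miss it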;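 note: 0% = plate neutral control median and 100% = total signal loss; the record names both 10 and 1 µM as test concentration; the first replicate is given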
Target sequence (P42568 whole entry, looked up): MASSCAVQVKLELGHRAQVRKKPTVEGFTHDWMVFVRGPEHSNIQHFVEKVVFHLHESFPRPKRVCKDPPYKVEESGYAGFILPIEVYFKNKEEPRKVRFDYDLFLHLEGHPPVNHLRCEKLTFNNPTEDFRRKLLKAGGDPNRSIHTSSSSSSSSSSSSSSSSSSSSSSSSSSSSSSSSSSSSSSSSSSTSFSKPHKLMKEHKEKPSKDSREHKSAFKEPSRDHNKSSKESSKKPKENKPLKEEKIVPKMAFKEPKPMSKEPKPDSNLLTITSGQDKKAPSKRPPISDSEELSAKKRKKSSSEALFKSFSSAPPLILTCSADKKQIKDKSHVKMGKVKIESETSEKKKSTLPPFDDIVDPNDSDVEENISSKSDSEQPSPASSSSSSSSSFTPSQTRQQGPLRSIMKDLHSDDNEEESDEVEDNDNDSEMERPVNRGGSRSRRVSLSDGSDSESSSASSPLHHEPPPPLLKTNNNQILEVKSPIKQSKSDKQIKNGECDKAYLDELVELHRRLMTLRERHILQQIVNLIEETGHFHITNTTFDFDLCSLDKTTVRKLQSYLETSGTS
Ecoli growth: blocks Escherichia coli growth; OD600, 23 h; hits give low values; AID 1053175; OD600 absorbance (concentration not given with the values); 0.21% of 330,000 active;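 active = OD600 absorbance below the run mean of sample wells minus 3.6 SD, in any replicate, cut at about 0.56 in these data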;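 note: stock transfer was 300 nL into about 60 µL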
Vif TR-FRET: inhibitors of Vif binding to APOBEC3G peptide, primary screen, biochemical, TR-FRET, GST-Vif 1-94, biotin-A3G peptide, dose response retest (AID 1117319); inhibition, %; hits with a dose series show IC50 in µM; 0.57% of 260,000 active; TR-FRET GST-Vif / biotin-A3G peptide binding; higher % means a stronger effect; test concentration not given here; strong numbers were not always called active;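 active = above the screen mean plus three standard deviations and confirmed in dose response; inconclusive = results disagree or hit not tested in dose response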;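 note: Vif residues 1-94 fused to GST binding biotinylated APOBEC3G peptide 110-148; 0% = full assay without inhibitor and 100% = GST in place of GST-Vif; retest series ran down from 100 µM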
UCH37 inh: blocks the human deubiquitinase UCH37. purified proteasome/UCH37, Ub-AMC cleavage fluorescence. inhibition, % (concentration not given with the values). 0.33% of 330,000 active;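 active = mean of two replicates above 20%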;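 note: 0% = compound-free wells with enzyme and 100% = wells lacking proteasome; stock transfer was 100 nL into about 20 µL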
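Material: Human UCH37 enzyme supplied as purified proteasome complex | Schedule: 30 min preincubation with enzyme, 25 min cleavage at room temperature | Detection: AMC fluorescence 355/460 nm | Measure: % inhibition of Ub-AMC cleavage fluorescence | Controls: Wells without proteasome as full block, compound-free enzyme plus substrate as uninhibited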
HNF4A DNA FP: change in binding of human HNF4 alpha to DNA | P41235 | HNF4a-FITC DNA binding, fluorescence polarization, 1 h | activity change, % at 10 µM | 0.3% of 360,000 active; in the data active = activity change above about 30%, passing the limit was not always enough;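 note: controls were the assay level and a saturating level of protein; the project sought stronger binding though the title names inhibitors; some compounds called inactive have numbers as strong as hits; positive values seem to mean higher polarization but the record does not say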
Target sequence (P41235 whole entry, looked up): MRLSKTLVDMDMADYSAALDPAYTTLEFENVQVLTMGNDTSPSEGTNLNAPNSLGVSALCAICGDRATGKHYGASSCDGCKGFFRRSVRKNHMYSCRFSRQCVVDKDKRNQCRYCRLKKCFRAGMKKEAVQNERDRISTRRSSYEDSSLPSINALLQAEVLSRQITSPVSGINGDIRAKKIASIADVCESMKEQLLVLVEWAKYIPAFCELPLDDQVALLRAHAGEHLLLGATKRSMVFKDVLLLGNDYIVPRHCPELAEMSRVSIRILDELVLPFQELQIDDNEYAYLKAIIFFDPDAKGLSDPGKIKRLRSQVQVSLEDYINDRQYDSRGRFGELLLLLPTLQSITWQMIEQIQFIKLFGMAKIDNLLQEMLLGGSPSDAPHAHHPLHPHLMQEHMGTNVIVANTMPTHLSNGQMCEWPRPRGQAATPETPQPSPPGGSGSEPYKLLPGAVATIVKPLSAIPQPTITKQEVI
RanGTP-Impb inh: inhibitors of RanGTP-importin-beta interaction, primary screen, biochemical, FRET, CFP-Ran, YFP-importin-beta, homogeneous. cell-free CFP-Ran/YFP-importin-beta FRET ratio. inhibition, % (concentration not given with the values). 1.1% of 300,000 active. AID 2216;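 active = most replicates above 15%; inconclusive = exactly half above 15%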;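 note: 0% = DMSO wells and 100% = Ran loaded with GDP instead of GTP; wells of about 40 µL received 100 nL stock; the first replicate is given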
FGF22 binding: FGF22 (human) thermal shift binding | recombinant FGF22 thermal shift, SYPRO orange fluorescence; percent of sucrose octasulfate shift, DMSO zero | 1.5% of 340,000 active | calls only at 9.99 µM | Q9HCT0;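 active = melting point raised past a set limit in the mean and every replicate; inconclusive = no clear call; three in four hits are not shown here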
* hit, by the source's call; i = inactive; ? = inconclusive; . = no result given; & = joins results of further samples. A portion of the library; the hit share may differ from the screen's.

MLL AF4-AF9 inh	Vif TR-FRET	Ecoli growth	FGF22 binding	HNF4A DNA FP	UCH37 inh	RanGTP-Impb inh	mol
0.4	.	0.69	i	-4.9	0.9	.	CC1(NC(=O)Cc2c(F)cccc2Cl)CCS(=O)(=O)C1 (stereo not given)
.	0%	0.73	.	4.0	0.2	-1.1	COc1cc2nc(SCc3ccc(Cl)cc3Cl)n(Cc3cccs3)c(=N)c2cc1OC
-3.3	.	.	i	-0.4	.	.	Cn1c(=O)c2[nH]c(C3CC3)nc2n(C)c1=O
2.2	-2%	0.64	i	3.8	4.9	-1.0	CCN1CCCC1CNCc1ccccc1OCc1ccc(F)cc1 (stereo not given)
0.5	.	0.64	i	0.3	0.6	.	CCCc1cc(=O)[nH]c(SCC(=O)Nc2cc(S(=O)(=O)N3CCCCC3)ccc2Cl)n1
.	6%	0.77	.	-0.7	-0.3	-1.5	COc1ccccc1N1CCN(C(=O)c2ccccc2Oc2ccccc2)CC1
-0.1	3%	0.68	i	0.3	-1.2	-4.5	CCCCn1c(N)c(N(CCOC)C(=O)c2ccc3c(c2)OCCO3)c(=O)[nH]c1=O
0.9	.	0.67	i	0.1	2.1	5.7	CC(C)c1cc(C(=O)N2CCCC(N3CCN(c4ccc(F)cc4)CC3)C2)n(C)n1 (stereo not given)
-2.4	.	0.66	i	0.5	1.6	1.8	Nc1cc(=O)[nH]c2nnc(SCC(=O)Nc3cccc4ccccc34)n12
-0.5	3%	0.73	i	0.5	-2.3	0.2	O=S(=O)(NN=C1CCCCCC1)c1ccccc1
-1.2	14%	0.73	.	4.4	-2.8	0.3	CC(=O)c1c(O)c2ccccc2n(C2CCCCC2)c1=O
.	.	0.7	.	-2.4	-2.9	0.8	COc1ccc(OC)c(NC(=O)c2cc(S(=O)(=O)N3CCCCC3)c[nH]2)c1
-1.9	?	0.75	i	-2.6	3.8	-1.9	O=C(CN1CCN(Cc2ccc(F)cc2Cl)C1=O)NCCc1ccccc1
.	.	0.65	i	-0.3	1.7	1.7	COc1ccc(/C=C/C(=O)NCc2ccc3c(c2)OCO3)cc1OC
2.5	-1%	.	i	-5.6	.	.	Cc1cccc(N(CC(=O)NCc2ccco2)S(=O)(=O)c2ccccc2)c1
4.8	-2%	0.71	.	5.8	-0.6	0.7	Cc1ccc2nc3n(c(=O)c2c1)CCC3
-0.4	-4%	0.71	i	7.8	-1.2	.	O=C(CSc1nnc(C2CC2)n1Cc1ccccc1)N1CCNC1=O
1.4	24%	0.68	i	0.2	1.4	0.4	COc1ccc2c(CC(=O)Nc3ccccc3N3CCOCC3)coc2c1
0.0	-2%	0.66	i	-5.5	2.8	-2.6	O=C(Nc1ccc(-c2ccc([N+](=O)[O-])cc2)cc1)c1ccccc1F
-3.9	2%	0.69	i	4.0	6.0	-1.4	Cc1cc(C(=O)CCC(=O)NCC2COc3ccccc3O2)c(C)s1 (stereo not given)
-1.6	.	.	i	1.1	3.3	.	COc1ccc(SC[C@H](Cc2ccccc2)N2CC[C@@H](C(C)(C)C)CCC2=O)cc1
5.2	.	.	i	0.1	1.3	.	Cc1ccc([C@@H]2CC=C(C(=O)O)[C@H](c3ccccc3F)N2S(=O)(=O)c2ccc(C)cc2)cc1
.	15%	0.65	.	2.7	0.2	3.5	Cc1nc2ncnn2c(C)c1CCC(=O)Oc1ccccc1
-18	-9%	0.71	i	0.2	2.7	-2.2	CN1C(=O)NC(c2ccc(O)cc2)C2=C1CN(c1ccccc1)C2=O (stereo not given)
4.1	6%	0.7	i	1.2	1.8	0.3	Cc1ccccc1NC(=O)COc1ccc(Br)cc1CNCCCO
-1.5	3%	0.69	i	-1.5	5.1	-0.8	CC(C)C(CO)N1CCN(Cc2ccccc2)CCC1=O (stereo not given)
.	5%	0.68	.	3.0	2.3	2.9	CN(C)S(=O)(=O)c1ccc(C(=O)N(c2ccccn2)c2ccccn2)cc1
0.2	0%	0.66	i	0.1	3.3	-1.4	Cc1ccc2nc(Nc3nc(CSc4nnc(C)s4)cc(=O)[nH]3)nc(C)c2c1
.	0%	0.65	.	1.4	2.9	1.9	CCOc1ccccc1N1CCN(Cc2cccc(OC)c2OC)CC1
0.5	.	0.66	i	.	3.9	.	CC[C@]1(c2ccccc2OC)ON(c2ccccc2C(F)(F)F)C1=O
0.6	.	0.67	i	2.9	1.5	-0.4	COc1ccccc1OC(C)C(=O)N1CCN(Cc2ccc3c(c2)OCO3)CC1 (stereo not given)
1.4	.	0.72	i	0.4	0.7	1.8	On1nnc2ccccc21
.	-3%	0.71	.	2.3	4.1	0.5	COc1cc(OC)cc(-c2nnc(SCC(=O)NCc3cccs3)o2)c1
1.1	.	0.74	i	-0.1	3.8	-3.5	C#CCN(C(=O)c1ccc(OC)c(OC2CCN(C(C)C)CC2)c1)C1CCCCC1
6.7	8%	0.7	i	0.3	5.5	-11	CCNC(=S)N(CCc1c(C)[nH]c2ccc(OC)cc12)Cc1cccnc1
.	6%	0.74	.	2.3	1.7	?	Cn1c(SC2CCCCC2=O)nnc1-c1ccncc1 (stereo not given)
.	32%	0.69	.	0.2	4.1	-0.8	COc1ccc(CN2CCC(C(=O)N3CCN(c4ccccc4F)CC3)CC2)cc1OC
.	4%	0.72	.	1.7	1.2	?	C(#CCN1CCOCC1)COCCOC(c1ccccc1)c1ccccc1
.	11%	0.63	.	-1.5	0.8	1.3	Nc1nc(-c2cccc(NS(=O)(=O)c3ccccc3)c2)cs1
.	22%	.	.	-0.6	.	2.1	N/C(=N/O)c1nc(N2CCCCC2)nc(N2CCCCC2)n1
.	12%	0.7	.	-5.4	4.1	0.5	N#Cc1c(NC(=S)NC(=O)Cc2cccs2)sc2c1CCCCC2
?	0%	0.7	i	1.7	6.7	2.1	Cc1ccc(NC(=S)N(CCCN2CCCC2)Cc2cccn2Cc2ccc(Cl)cc2)cc1
-1.5	.	0.69	i	0.1	3.5	2.6	O=C(Nc1c(C(=O)N2CCOCC2)cnn1-c1ccccc1)c1cccc(F)c1
.	3%	0.68	.	0.4	5.0	0.7	CCOC(=O)C1=C(C)N=C2c3ccccc3C(=O)C2C1c1ccc(Cl)cc1 (stereo not given)
.	-2%	0.68	.	-1.1	3.3	-0.8	Cc1ccc(C(=O)Nc2cccc(C(=O)NCc3ccccc3)c2)o1
1.0	.	0.69	i	-0.9	1.1	1.5	O=C(c1ccco1)N1CCN(C(=O)c2cnn(-c3ccc(Cl)cc3)c2C2CCNCC2)CC1
4.8	.	0.67	i	1.8	-0.1	2.8	Cc1ccc(C2N(c3ccc(Cl)cc3)C(=O)N3CCCN23)cc1 (stereo not given)
-0.3	-4%	0.68	i	-5.0	-9.6	.	CCN(C(=O)COC(=O)/C=C/c1ccc(OC(F)F)c(OC)c1)C1CCS(=O)(=O)C1 (stereo not given)
.	5%	0.7	.	3.4	1.2	1.2	CCC(c1nnc(SCC(=O)Nc2nnc(-c3ccccc3)o2)o1)N(C)C (stereo not given)
-2.4	58%	0.68	i	-2.0	4.1	0.0	CCNC(=O)C1CC(=O)N(Cc2ccc(F)cc2)C(=Nc2ccc(OC)cc2)S1 (stereo not given)
3.1	12%	.	i	1.0	1.4	4.2	C#CCOCCOCCOCCNc1nc(N2CCN(C(=O)C([C@@H](C)CC)n3cc(C(N)CC(C)C)nn3)CC2)nc(N2CCN(C(=O)[C@H](CCC(=O)O)n3cc(C(N)[C@H](C)CC)nn3)CC2)n1 (stereo not given in full)
.	-4%	0.65	.	2.6	-1.6	-4.4	COCc1cc(=O)n2[nH]c(C)nc2n1
-1.1	-9%	.	i	-0.5	.	.	O=C(c1ccoc1)N1CCN(c2cc(-c3cccc(F)c3)nc3cc(-c4cccc(Cl)c4)nn23)CC1
1.0	1%	0.71	i	-0.1	3.1	.	O=C1[C@@H](Oc2ccccc2)[C@@H](c2ccncc2)N1c1ccncc1
1.2	.	.	i	1.9	.	.	CCCCN(C=O)c1c(CC)nc2ccc(C(=O)NCCCN3CCCC3=O)cn12
-4.7	-9%	0.67	i	1.3	-0.4	.	COc1ccc(S(=O)(=O)N2CCN(C(=O)CN3C(=O)NC(C)(C)C3=O)CC2)cc1

Shown with two lines to a compound: part of the list above
Each structure is followed by: MLL AF4-AF9 inh	Vif TR-FRET	Ecoli growth	FGF22 binding	HNF4A DNA FP	UCH37 inh	RanGTP-Impb inh
> CCC(c1nnc(SCC(=O)Nc2nnc(-c3ccccc3)o2)o1)N(C)C (stereo not given)
 : .	5%	0.7	.	3.4	1.2	1.2
> CCNC(=O)C1CC(=O)N(Cc2ccc(F)cc2)C(=Nc2ccc(OC)cc2)S1 (stereo not given)
 : -2.4	58%	0.68	i	-2.0	4.1	0.0
> C#CCOCCOCCOCCNc1nc(N2CCN(C(=O)C([C@@H](C)CC)n3cc(C(N)CC(C)C)nn3)CC2)nc(N2CCN(C(=O)[C@H](CCC(=O)O)n3cc(C(N)[C@H](C)CC)nn3)CC2)n1 (stereo not given in full)
 : 3.1	12%	.	i	1.0	1.4	4.2
> COCc1cc(=O)n2[nH]c(C)nc2n1
 : .	-4%	0.65	.	2.6	-1.6	-4.4

(cont.)
MLL AF4-AF9 inh	Vif TR-FRET	Ecoli growth	FGF22 binding	HNF4A DNA FP	UCH37 inh	RanGTP-Impb inh	mol
1.2	5%	0.7	i	0.7	6.8	-0.7	COc1ccccc1NC(=O)c1ccc2c(c1)OCO2
-10	0%	.	i	-1.3	-2.4	8.2	CCO[C@H]1OC(C(=O)N2CCN(C)CC2)=C[C@@H](C)[C@@H]1CCCO
4.3	8%	0.75	i	2.8	2.3	-0.6	O=S(=O)(c1ccccc1)N1CCn2c(nc3ccccc32)C1
-0.8	4%	.	i	-1.4	.	0.3	CCCC(=O)Nc1ccc(C(=O)n2ccc(C)n2)cc1
.	3%	0.75	.	-2.4	1.8	-1.0	O=C(O)CCCC(=O)NCCCc1ccccc1
-1.1	18%	.	i	0.1	.	-0.9	NS(=O)(=O)c1ccc(NNC(=O)c2sccc2Cl)cc1
-3.7	77%	0.75	i	1.3	8.2	-1.6	COc1ccc(NC(=O)CN(C)S(=O)(=O)c2ccc3c(c2)CCC(=O)N3)c(OC)c1
-1.9	.	.	i	-4.0	.	.	Cc1c(C(=O)NCc2ccc3c(c2)OCO3)sc(=O)n1Cc1ccc(-c2ccccc2)cc1
-1.0	-2%	0.69	i	0.2	-25	3.5	CCOC(=O)c1cc(C(=O)OCC)c(=O)[nH]c1N1CCCC1
-2.8	.	0.68	i	5.2	-2.7	.	COC(=O)c1ccccc1NC(=O)COC(=O)Cc1ccc(S(=O)(=O)N2CCOCC2)s1
0.1	.	.	i	-4.2	.	.	COCOCCn1cc(CN2CCS(=O)(=O)N(Cc3ccc(-c4ccc(Cl)c(Cl)c4)cc3)C(C(C)C)C2=O)nn1 (stereo not given)
3.7	.	0.7	i	-0.4	2.9	6.7	COc1ccc(NS(=O)(=O)c2cccc(NC(=O)COc3ccc(OC)cc3)c2)cc1
-1.8	3%	0.64	i	2.6	7.6	5.4	CC(=O)c1ccc(N2CCN(S(=O)(=O)c3cccc4nonc34)CC2)cc1
-2.5	.	0.66	.	0.9	0.7	-0.2	Cc1ccc(S(=O)(=O)CC(O)COc2ccccc2C#N)cc1 (stereo not given)
.	-3%&-5%	0.72	.	4.4	-3.3	-0.7	N#Cc1nc(Cc2ccccc2)oc1NCc1ccccc1Cl
-5.6	.	0.7	i	1.3	3.3	-1.9	O=C(CCNC(=O)c1ccccc1)NCC1CCCCC1
-5.8	.	0.71	i	1.4	4.8	1.3	Cc1cc(SCC(=O)Nc2cccc(S(=O)(=O)NC3=NCCCCC3)c2)nc2ccccc12

Compound activity: PubChem, several laboratories
